Rce1 inh – yeast Rce1p protease inhibitors, primary screen, biochemical, fluorescence, cell-free homogeneous; calls only; CAAX prenyl protease 2 (Saccharomyces cerevisiae (strain ATCC 204508 / S288c)), Q03530; actives 0.27% (n = 290,000); yeast membranes, quenched prenylated peptide cleavage fluorescence;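 active = fall in fluorescence gain of 50% or more versus controls, with final raw signal at or below 3038400; inconclusive = same 50% fall but final raw signal above 3038400; inactive = fall in fluorescence gain under 50%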;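 also: plate controls were neutral control wells for no effect and wells lacking membranes for full effect; tested at 10 µM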
Target sequence (Q03530 whole entry, looked up): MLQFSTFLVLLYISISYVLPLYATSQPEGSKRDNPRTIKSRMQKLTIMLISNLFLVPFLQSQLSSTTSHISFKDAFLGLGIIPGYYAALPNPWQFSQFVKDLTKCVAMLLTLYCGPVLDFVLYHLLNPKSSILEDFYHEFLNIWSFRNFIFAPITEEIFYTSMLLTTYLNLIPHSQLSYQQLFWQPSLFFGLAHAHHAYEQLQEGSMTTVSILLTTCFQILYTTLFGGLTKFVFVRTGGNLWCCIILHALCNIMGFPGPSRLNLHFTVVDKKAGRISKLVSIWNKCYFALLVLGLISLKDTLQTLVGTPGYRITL
MT1-MMP act inh – blockers of MT1-MMP proenzyme processing, primary screen, HT1080 RFP-PRO-GFP cells, GFP/RFP fluorescence; GFP/RFP ratio fluorescence, overnight; percent of plate control window, DMSO zero; GFP/RFP ratio change, % at 20 µM; actives 0.061% (n = 360,000); AID 651647, 2012;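 active = GFP/RFP ratio change of at least 30% with cell ATP level not reduced by more than half and red fluorescence within 50% of control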; also: strong numbers were not always called active
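Material – HT1080 RFP-PRO-GFP cells · Control set – DMSO wells and RFP-L50D-GFP cells · Incubation – overnight cell settling, then overnight compound exposure, 37 °C, 5% CO2 · Compound dosing – single-point 20 µM compound, 1% DMSO · Read-out – GFP/RFP fluorescence ratio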
PABP polyA inh – PABP poly(A) RNA binding inhibitors, primary screen, biochemical, fluorescence polarization, uHTS; actives 1% (n = 290,000); inhibition, % at 35 µM;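 active = 50% or more with normal probe brightness, or confirmed in later tests; inconclusive = above 50% with abnormal brightness, or retests that disagree; inactive = below 50% or failed in later tests; about a fifth of its hits are not listed in these tables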;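 also: calls also rest on retests at 20 µM and on dose response follow-up; controls were probe without protein and protein plus probe with vehicle; some compounds called inactive have numbers as strong as hits; many hits fall short of the cut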
Target sequence (P11940 whole entry, looked up): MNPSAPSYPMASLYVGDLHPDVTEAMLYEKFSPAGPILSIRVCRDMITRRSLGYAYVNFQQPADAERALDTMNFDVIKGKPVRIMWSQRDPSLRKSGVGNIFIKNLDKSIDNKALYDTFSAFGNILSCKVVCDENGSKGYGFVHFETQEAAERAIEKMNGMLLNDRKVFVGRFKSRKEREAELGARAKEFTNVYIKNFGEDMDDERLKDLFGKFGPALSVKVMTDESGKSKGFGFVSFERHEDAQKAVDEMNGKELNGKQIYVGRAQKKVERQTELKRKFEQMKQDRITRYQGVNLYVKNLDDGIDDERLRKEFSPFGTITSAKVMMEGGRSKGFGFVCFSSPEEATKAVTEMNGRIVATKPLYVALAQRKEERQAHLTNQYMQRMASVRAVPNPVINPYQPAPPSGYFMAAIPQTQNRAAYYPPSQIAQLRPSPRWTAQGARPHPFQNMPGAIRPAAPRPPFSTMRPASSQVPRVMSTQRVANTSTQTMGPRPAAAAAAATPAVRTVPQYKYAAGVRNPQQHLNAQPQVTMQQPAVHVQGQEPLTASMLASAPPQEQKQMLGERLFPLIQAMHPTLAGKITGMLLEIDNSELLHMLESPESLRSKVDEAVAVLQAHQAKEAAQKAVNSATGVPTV
HIV Env fusion – inhibitors of HIV-1 Env-driven cell-cell fusion, primary screen, HeLa-JRFL effector, CEM21 target cells, luciferase; actives 1.1% (n = 360,000); inhibition, % at 12.3 µM;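 active = mean replicate inhibition score of at least 50 and every replicate individually at or above 50; inconclusive = only one of the two criteria met; inactive = mean below 50 and not all replicates reaching 50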;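 also: 0% = plate neutral controls and 100% = maraviroc near 300 nM; one replicate is shown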
eIF4H inh – human eIF4H binding inhibitors, primary screen, translation initiation inhibitor project, biochemical, uHTS, fluorescence polarization. Eukaryotic translation initiation factor 4H (Homo sapiens), Q15056. eIF4H fluorescence polarization binding assay. inhibition, % at 35 µM. actives 0.94% (n = 290,000);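 active = 50% or more with normal probe brightness, or confirmed in later tests; inconclusive = above 50% with abnormal brightness, or retests that disagree; inactive = below 50% or failed in later tests; about a fifth of its hits are not listed in these tables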;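 also: calls also rest on retests at 20 µM and on dose response follow-up; 0% = protein and probe with vehicle and 100% = probe without protein; strong numbers were not always called active; many hits fall short of the cut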
UUG fidelity – modulators of yeast start codon fidelity, primary screen, whole organism, S. cerevisiae, single point, plate reader. S. cerevisiae UUG-firefly luciferase reporter, luminescence/redox ratio. activity score, % at 18.7 µM. actives 0.13% (n = 350,000);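 active = replicate mean at a twofold rise or more, about +100% in these data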;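 also: firefly luciferase made from a UUG start codon reports start codon fidelity; reporter light over untreated wells divided by growth signal over untreated wells; some hits fall short of that in this replicate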
CSC inhib – cancer stem cell viability inhibitors, primary screen, luminescence; inhibition, % at 7.5 µM; cancer stem cell-like cells viability; actives 1.1% (n = 300,000); AID 2717, 2010;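 active = mean at 75% or more and at least half the replicates too; inconclusive = mean and replicates disagree; tested in HMLE shEcad cells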;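 also: 0% = median of negative and 100% = median of positive control wells; the first replicate is given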
eIF4H inh retest – further read-out of eIF4H inh, marked with its call; inhibition, %; compound at 20 µM; confirmation average;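 mean of two retest wells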
PABP polyA inh retest – also measured in PABP polyA inh; calls as there; inhibition, %; compound at 20 µM; confirmation repeats;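 mean of two retest wells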
MT1-MMP act inh RFP – second read-out of MT1-MMP act inh, no call of its own (marks repeat the call); RFP signal change, %; measured here: RFP expression control read;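 0 = vehicle wells; hits needed this value within 50% of zero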
Numbers without * were called inactive; i = inactive; ? = inconclusive; nt = no result given; & = joins results of further samples; [ ] = another dose, or the depositor's remark. Not all compounds are listed; count on the stated rates, not on these rows.

SMILES	Rce1 inh	MT1-MMP act inh	MT1-MMP act inh RFP	PABP polyA inh	HIV Env fusion	eIF4H inh	UUG fidelity	CSC inhib	others
CCn1nnc2cc(C(=O)Nc3cc(Cl)ccc3C)ccc21	nt	2	1	nt	6	nt	-7	-2
Cc1ccc(NC(=O)CSCC(=O)OCc2cc(=O)oc3cc(O)ccc23)c(C)c1	i	-4	2	nt	10	nt	-12	-14
COc1ccc2[nH]c(=O)c(CN(Cc3ccccc3)Cc3nnnn3CC3CCCO3)cc2c1 (stereo not given)	i	2	-2	6	-1	-1	-15	-6
O=C(N/N=C/c1ccc(N2CCOCC2)s1)c1ccccc1Br	i	-9	-2	20	-13	?	nt	0
CN(Cc1ccccc1)C(=O)CN1CCN(C(c2ccccc2)c2ccccc2)CC1	i	-5	-5	-12	6	-4	nt	10
Cn1cnnc1SC1c2cccc3cccc(c23)C1NS(=O)(=O)c1ccccc1 (stereo not given)	i	-1	4	4	-5	-14	-5	4
O=C(NC(=S)Nc1ccc(O)cc1)c1cncc(Br)c1	i	-2	-7	nt	-9	nt	nt	2
O=C(CCn1c(=O)sc2ccccc21)NCCN1CCOCC1	i	4	6	nt	-18	nt	-10	-1
CN(Cc1cnn(C)c1)C(=O)CC1C(=O)NCCN1Cc1cccc(Oc2ccccc2)c1 (stereo not given)	i	-2	-2	10	11	-1	5	-3
O=C(CC1C(=O)NCCN1Cc1cccc(C(F)(F)F)c1)NC1CCOCC1 (stereo not given)	i	-4	4	3	nt	0	-1	-20
O=C(C1CCC1)N1CCc2cc(S(=O)(=O)N3CCCCC3)ccc21	i	4	-4	2	nt	-8	-1	-2
COc1ccc(CCNc2oc(-c3ccc(OC)c(OC)c3)nc2P(=O)(OC)OC)cc1OC	?	0	3	-1	nt	3	nt	-1
Cc1ccc(NC(=O)c2cccc(NC(=O)CCC(=O)O)c2)cc1C	i	3	1	6	4	-3	nt	nt
O=C(C1=C[C@H](c2coc3ccccc3c2=O)C[C@H](OCCCCO)O1)N1CCOCC1	i	-2	3	-1	13[16.7 µM]	0	-10&-15	-2
Cc1ccc2oc(C(=O)N3CCC(O)(c4ccccc4)CC3)c(C)c2c1	i	0	-1	-16	-2	-3	7	-9
CC1CCCN(S(=O)(=O)c2cccc(C(=O)NCC3CCCO3)c2)C1 (stereo not given)	nt	0	2	nt	-3	nt	-4	-10
COc1ccc(CNC(=O)c2cnc(C)cn2)cc1	i	-1	0	0	nt	8	nt	-4
O=C(CN(c1ccc(F)cc1)S(=O)(=O)c1ccc2c(c1)OCCO2)NCc1cccnc1	i	5	8	12	nt	2	-9	-13
COc1ccc(CCn2c(NN=C3CCCCC3)nc3c2c(=O)[nH]c(=O)n3C)cc1	i	0	0	0	nt	9	-5	23
Cn1c(=O)c(Sc2ccc(Cl)cc2)c(O)c2ccccc21	i	2	1	0	3	-7	-8	-21
O=C(/C=C/c1ccccc1)/C=C/c1ccccc1	i	1	2	-4	-243	4	1	?
CCCc1nnc(NC(=O)CCC(=O)N2CCN(CCOc3ccc(C)cc3)CC2)s1	i	2	-18	6	nt	-1	-4	-9
O=C(c1ccco1)N1CCN(C(=O)c2cn(-c3ccccc3)nc2-c2ccccc2)CC1	nt	-3	-1	nt	nt	nt	13	-17
COc1cc(/C=C(\C#N)C(=O)NC(C)C)cc(Cl)c1O	i	-28	-3	-1	-9	-13	-3	-3
COc1cc2cc(C(c3nnnn3C(C)(C)C)N3CCc4ccccc43)c(=O)[nH]c2cc1OC (stereo not given)	i	-3	0	-5	nt	-6	6	4
C=CCOC(=O)C1=C(C)NC(SCC(=O)OCC)=C(C#N)C1c1ccc(C)cc1 (stereo not given)	i	17	5	7	nt	1	-7	-20
CC(C)(C)C1CCc2c(sc(NC(=O)CSc3nnc(-c4ccccc4)o3)c2C#N)C1 (stereo not given)	i	3	-2	-10	10	11	-4	62
C=C(C)c1cccc(C(C)(C)NC(=O)NCc2ccncc2)c1	i	4	2	-5	-5	6	nt	-17
CCCCOc1ccc(/C=N/NC(=O)c2nnn(-c3nonc3N)c2CN2CCCCCC2)cc1	i	-2	-1	nt	-28	nt	-14	30
CC1(C)C(C=C(Cl)Cl)C1C(=O)N1CCN(c2ccccc2)CC1 (stereo not given)	i	2	-7	-1	-27	-4	nt	6
N#CC1=C(N)Oc2n[nH]c(-c3ccc(F)cc3)c2C1c1ccncc1 (stereo not given)	i	6	14	-12	nt	-12	-11	nt
CC(Sc1nc(NCc2ccccc2)nc(N2CCOCC2)n1)C(=O)Nc1ccccc1 (stereo not given)	i	-7	-4	-6	nt	-18	-32	4
COc1ccc(C(C)(C)C)cc1NC(=O)COC(=O)c1nc2nccc(C)n2n1	nt	-1	2	nt	nt	nt	-4	-12
CC(=O)N1CCC(C(=O)Nc2cc(C)cc(C)c2)CC1	nt	2	0	1	7	-9	-18	0
CC(=O)c1ccc(S(=O)(=O)N2CCC(NC(=O)Nc3cccc(F)c3)CC2)cc1	i	4	-5	-4	17	-1	nt	-7
O=C(Nc1ccccc1Cl)ON=C1c2ccccc2-c2ccccc21	i	-4	-7	-8	nt	-1	nt	nt
O=C1NCCN1CCNS(=O)(=O)c1ccccc1[N+](=O)[O-]	i	1	0	0	2	-5	1	0
COc1ccc2cc3cc(C(=O)NCc4ccc5c(c4)OCO5)oc3nc2c1	i	2	-3	-8	-50	-3	-18	1
COc1ccc(C(=O)NCCS(=O)(=O)N2CCN(Cc3ccccc3)CC2)cc1	i	2	3	nt	nt	nt	-10	5
CC1(C)c2cc(O)ccc2OC1N1CCOCC1 (stereo not given)	i	-3	3	5	-11	-2	-2	-4
Cc1ccc(S(=O)(=O)N(C)C)cc1NC(=O)c1ccc(OC(F)(F)F)cc1	i	-5	-6	1	5	-11	nt	0
O=C(O)C1=C[C@@H](c2ccc(C(F)(F)F)cc2)C[C@@H](OCc2ccc(CO)cc2)O1	i	1	4	4	-10[16.7 µM]	5	1&-7	8
O=C(O)CN1C(=O)CC(Cc2ccc(Cl)cc2)C1=O (stereo not given)	i	2	3	2	-24	3	-17	-4
Cc1cccc(NC(=O)CSc2nnc(-c3ccco3)c(-c3ccco3)n2)c1C	i	-13	5	62*	nt	91*	-6	-11	eIF4H inh retest=101*;PABP polyA inh retest=99*
O=C(CSc1nc2ccccc2[nH]1)c1ccc2c(c1)OCO2	i	8	9	-1	-66	3	-20	-14
COc1cccc(-c2nc(Oc3cc(C)cc(C)c3)c3ccccc3n2)c1O	i	nt	nt	-8	nt	5	nt	8
C[C@@H](C(=O)NCC1CC1)[C@@H]1C[C@@]1(C)[C@@H](NC(=O)OCc1ccccc1)c1ccccc1	i	-4	-5	-5	15	-6	-22	-11
CCOc1cccc(OCCOCCOc2ccccc2C(C)=O)c1	i	2	0	-2	-3	-8	nt	-4
CC(C)(C)C(=O)N1CCC[C@H]1C(O)(c1ccccc1)c1ccccc1	i	-4	-2	6	14	-3	-17	nt
Cc1ccc(NC(=O)CNC(=O)c2cccs2)c(O)c1	i	1	0	nt	17	nt	-21	-2
Remaining list, next part:
SMILES	Rce1 inh	MT1-MMP act inh	MT1-MMP act inh RFP	PABP polyA inh	HIV Env fusion	eIF4H inh	UUG fidelity	CSC inhib	others
CCCC(=O)NC(=S)Nc1ccc(N2CCOCC2)c(Cl)c1	i	1	1	6	-10	0	nt	-14
CC1CC(C)CN(S(=O)(=O)c2ccc3c(c2)CCN3C(=O)C2CC2)C1 (stereo not given)	i	4	-4	4	0	0	4	11
Cc1[nH]c2ccccc2c1/C=N/NC(=O)CNC(=O)c1cccs1	i	4	-1	-6	-4	-13	nt	-9
CCOc1ccccc1NC(=O)CN(Cc1ccccc1)S(C)(=O)=O	i	-1	2	8	nt	-5	-5	-16
CCC(CO)NS(=O)(=O)c1cc(-c2nn(C)c(=O)c3ccccc23)ccc1C (stereo not given)	i	1	-1	-1	3	-3	nt	-4
CN(Cc1ccon1)Cc1cn(C)nc1-c1ccc(Oc2ccccc2)cc1	i	2	-3	0	19	3	-4	-13
CCOC(=O)N1CCc2c(sc3c2c(=O)n(Cc2ccccc2)c(=O)n3CC(=O)NCCOC)C1	i	-6	0	-11	9	4	3	2
COC(=O)c1cn(NC(=O)C2COc3ccccc3O2)c(=O)c2ccccc12 (stereo not given)	i	nt	nt	8	-14	0	-3	6
Cc1ccccc1C(=O)N1CCC1(C)C(=O)NC(C)C (stereo not given)	nt	0	5	nt	-19	nt	-16	nt
COC(=O)[C@]1(C)N[C@H](CN(C)C(=O)NC(C)C)[C@@H]2C(=O)N(Cc3ccccc3)C(=O)[C@@H]21	nt	0	4	nt	20	nt	-3	nt
COc1cccc(OC)c1C(=O)Nc1c(C(=O)N2CCN(c3ccccn3)CC2)oc2ccccc12	i	-13	-7	6	7	-10	-18	9
O=C(COc1ccc(Br)cc1)N1CCN(c2ccc([N+](=O)[O-])c(N3CCCCC3)c2)CC1	i	2	-9	1	nt	-1	-14	43
COC(=O)c1n[nH]n(-c2ccc(F)c(Cl)c2)c1=O	i	2	1	4	-4	0	-18	-3
CC(C)(C)c1cc(NC(=O)CSc2nncs2)n(-c2ccccc2)n1	i	1	0	-1	11	-2	nt	-14
COC(=O)CSc1nnc(-c2ccoc2C)n1-c1ccc(C)cc1	i	9	-3	-8	nt	-10	-13	-6
Cn1nc(C(=O)N2CCN(S(=O)(=O)c3ccc(Cl)cc3)CC2)c2ccccc2c1=O	nt	-2	-10	nt	14	nt	7	nt
CNC(=O)c1cc2cccc(OC)c2oc1=O	i	4	2	-4	nt	2	-3	8
Cc1nc(Sc2ccccc2)c(C#N)c(C)c1[N+](=O)[O-]	nt	5	-6	-11	-3	-1	19	46
CNC(=O)c1cc2cc(OC)ccc2oc1=N	i	8	3	0	-294	-2	-16	-19
COc1cccc(C2C(C(=O)c3cccs3)=C(O)C(=O)N2CCN2CCOCC2)c1OC (stereo not given)	i	-2	2	7	-1	-15	-12	nt
CC1=Nc2ccc(Br)cc2C(c2ccccc2)N1CC(=O)O (stereo not given)	i	-1	2	-9	8	0	-21	1
CC(O)(c1cccnc1)c1nc(-c2cccc(C#N)c2)cs1 (stereo not given)	nt	-1	-5	nt	-15	nt	-5	nt
COc1cccc(CNC(=O)c2ccc(CS(=O)Cc3ccccc3Cl)o2)c1 (stereo not given)	nt	1	0	nt	-2	nt	-3	nt
CCOc1ccc(N(CC(=O)Nc2cccc(OC)c2)S(C)(=O)=O)cc1	i	1	1	2	-11	5	-6	-5
C/C(=N/NC(=O)CCC(=O)Nc1cccc(Cl)c1)c1ccc(C)cc1	i	-5	-2	-3	nt	-3	nt	5
Cc1oc(-c2ccc(Cl)cc2)nc1CS(=O)CC(=O)NCCCN1CCN(Cc2ccccc2)CC1 (stereo not given)	i	6	-24	nt	25	nt	-2	-15
Nc1ccc(Cc2ccccn2)cc1	i	-1	2	-2	9	2	nt	-8
